# Screens from PubChem.
# TRPML1 ag: qHTS for Agonists of the Human Mucolipin Transient Receptor Potential 1 (TRPML1) | Mucolipin-1 (Homo sapiens), Q9GZU1 | activation, % (concentration not given with the values) | hit rate 0.12% among 410,000 | TRPML1-expressing cells, Ca2+ dye fluorescence, FDSS; host cell line not named in the record; reference of the full effect not given here; in the data active = activation above about 50%; inconclusive = about 30% to 50%; inactive = below about 30%; further: 0% is about no effect; the text of the record puts the active cut at 80%
# Target sequence (Q9GZU1 whole entry, looked up): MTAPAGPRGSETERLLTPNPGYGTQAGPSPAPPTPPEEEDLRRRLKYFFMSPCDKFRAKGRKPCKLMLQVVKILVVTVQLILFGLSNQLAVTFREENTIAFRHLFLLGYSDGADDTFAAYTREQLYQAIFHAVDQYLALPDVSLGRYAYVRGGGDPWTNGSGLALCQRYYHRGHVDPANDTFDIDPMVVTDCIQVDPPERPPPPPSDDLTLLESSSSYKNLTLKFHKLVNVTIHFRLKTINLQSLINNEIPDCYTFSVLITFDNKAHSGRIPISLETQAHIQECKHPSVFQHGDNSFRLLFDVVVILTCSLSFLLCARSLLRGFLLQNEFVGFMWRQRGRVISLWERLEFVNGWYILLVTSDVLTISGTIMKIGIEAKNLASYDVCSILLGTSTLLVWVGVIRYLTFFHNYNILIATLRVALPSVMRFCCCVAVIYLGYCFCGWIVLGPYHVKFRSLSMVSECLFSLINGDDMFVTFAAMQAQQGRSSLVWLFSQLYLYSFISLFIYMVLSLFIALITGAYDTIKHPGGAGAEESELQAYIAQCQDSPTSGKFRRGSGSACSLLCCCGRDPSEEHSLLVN
#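 Agonist activity was taken from a 110 s kinetic Ca2+ dye read on the FDSS after pinning compounds onto TRPML1-DL cells. The cells were seeded at 1,500/well with Tet inducer, incubated about 16 h, then dye-loaded at room temperature.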
# CtBP-E1A blk: qHTS Assay for Inhibitors of the CtBP/E1A Interaction; activity change, % (concentration not given with the values); AID 651724, 2012; CtBP / adenovirus E1A interaction (AlphaScreen); hit rate 0.49% among 340,000; AlphaScreen GST-E1A/His-CtBP binding, 1536-well; stronger effect = lower value; control for the full effect not named in the record; in the data active means activity change below about -65%; inconclusive means about -30% to -65%; inactive means above about -30%; further: on the % scale 0 is the no-effect control and ±100 the full control effect
#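 AlphaScreen with 125 nM GST-E1A and 125 nM His-CtBP (5X stocks) in Tris pH 8.0, 300 mM NaCl, BSA, Tween 20, TCEP. Compounds preincubated 2 h at 37 deg C, then glutathione donor/nickel acceptor beads added for 1 h at 37 deg C in dark.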
# D2 potentiator: Beta-Arrestin HTS for Positive Allosteric Modulators of the Human D2 Dopamine Receptor: Potentiators | DiscoveRx D2 beta-arrestin cells, luminescence, 90 min; 100% = 57 uM dopamine signal | potentiation, % (concentration not given with the values) | hit rate 0.23% among 360,000; active = potentiation of 50% or more; inconclusive = 30% to 50%; inactive = 30% or less;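 further: compound concentration not given in the record; tested on top of an EC20 dose of dopamine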
# Target sequence (P14416 whole entry, looked up): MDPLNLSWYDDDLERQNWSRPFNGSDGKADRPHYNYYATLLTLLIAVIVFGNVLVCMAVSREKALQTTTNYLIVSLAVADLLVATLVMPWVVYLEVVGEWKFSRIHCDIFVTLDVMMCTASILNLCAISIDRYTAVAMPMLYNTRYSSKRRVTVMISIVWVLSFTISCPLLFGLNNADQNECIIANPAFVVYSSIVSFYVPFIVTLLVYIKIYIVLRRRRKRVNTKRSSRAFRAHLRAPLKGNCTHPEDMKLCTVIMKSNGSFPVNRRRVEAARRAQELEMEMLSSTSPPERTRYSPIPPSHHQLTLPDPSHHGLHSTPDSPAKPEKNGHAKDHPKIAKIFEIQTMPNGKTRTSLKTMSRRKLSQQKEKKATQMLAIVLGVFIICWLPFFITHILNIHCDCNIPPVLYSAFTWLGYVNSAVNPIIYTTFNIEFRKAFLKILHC
#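 PathHunter beta-arrestin assay in DiscoveRx D2 cells. Compounds were added with an EC20 of dopamine (50 nM final) for 90 min at 37 deg C. Luminescence was read 1 h after detection reagent, with 57 uM dopamine as the EC100 control.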
# Six1-Eya2 inh: qHTS Assay for Inhibitors of the Six1/Eya2 Interaction; hit rate 0.56% among 360,000; Homeobox protein SIX1 (Homo sapiens) + Protein phosphatase EYA2 (Homo sapiens), …; AlphaScreen GST-Six1/His-Eya2 binding, biochemical; stronger effect = lower value; control for the full effect not named in the record; activity change, % (test concentration not listed); in the data active = activity change below about -65%; inconclusive = about -30% to -65%; inactive = above about -30%; further: on the % scale 0 is the no-effect control and ±100 the full control effect; compound concentration not given in the record
#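 Compounds are tested against tagged Six1 and Eya2 proteins bridged by glutathione donor and nickel acceptor beads; after a one-hour incubation at 37 °C without light, AlphaScreen emission is recorded.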
# PINK1 expr mod: A Quantitative High throughput Screen to Identify Chemical Modulators of PINK1 Expression; PINK1 immunofluorescence, high-content cytometry, 24 h; Potency, µM (top dose mostly 76.6 µM), for inactives: at the highest dose activation (PINK1 increase), actives largely listed as activators; hit rate 0.2% among 410,000; AID 624263, 2012; active = well fitted activation curve with a large enough effect; inconclusive = small, poorly fitted or top-dose-only effect; inactive = flat fitted curve, though single readings scatter; cell line not stated here;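 further: potency means the concentration at half of the fitted maximal effect; % of control where 0% means no effect; nearly all actives have a fitted effect of over 65% in size; a mitochondrial uncoupler was the plate control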
#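 Cells are seeded, rested 12 hours, then given compound at five concentrations or DMSO for 24 hours. After fixation, blocking and antibody staining, PINK1 amount and mitochondrial localization are scored; CCCP serves as control.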
# D2 agonist: Beta-Arrestin HTS for Positive Allosteric Modulators of the Human D2 Dopamine Receptor: Agonists. D(2) dopamine receptor (Homo sapiens), P14416. DiscoveRx PathHunter D2 beta-arrestin, luminescence, 90 min; 100% = 57 uM dopamine signal. activation, % (concentration not given with the values). hit rate 0.084% among 360,000; in the data active = activation above about 40%; inconclusive = about 15% to 40%; inactive = below about 15%; further: compound concentration not given in the record; the text of the record calls up to 30% inactive
#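 DiscoveRx PathHunter D2 beta-arrestin cells (2,100/well) attached overnight, then compound-stimulated 90 min at 37 C in HBSS/10 mM HEPES/0.1% Tween-20 buffer; beta-galactosidase complementation read by luminescence after 1 h at ambient temperature. Dopamine 57 uM final (EC100) as control.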
# * marks the source's active call; other numbers are inactive results; ? = inconclusive; / = no result given; & = joins results of further samples; [ ] = dose if it differs, or a comment.
SMILES,TRPML1 ag,CtBP-E1A blk,D2 potentiator,Six1-Eya2 inh,PINK1 expr mod,D2 agonist
O=C(c1ccc2ccccc2n1)N(CCO)Cc1ccccc1,/,/,-12,-1,1.4%,-5.4
CCCCCC(=O)NC(NC(=S)N1CCOCC1)C(Cl)(Cl)Cl (configuration not stated),0.1,-2,-2,12,9.9%,-3.0
[O-][n+]1onc2c1CCc1c-2nc(-c2ccccc2)n1OCc1ccccc1,1.8,23,3,11,2.0%,-0.9
Cc1ccc(-c2csc(NC3OC(=O)c4ccccc43)n2)cc1 (configuration not stated),-0.6,-4,-13,13,-0.5%,-1.8
Brc1ccccc1-c1nnc(COc2cccc3cccnc23)o1,1.1,?,20,?,15%,7.5
CCC(=O)Nc1nc(OC)cc(OC)n1,1.0,-1,-7,10,2.4%,-3.7
CCOC(=O)NC(Nc1ccc(OC)cc1)(C(F)(F)F)C(F)(F)F,-1.0,-2,-10,6,0.4%,-3.8
CC(=O)c1cccc(OCc2cc(C(=O)N3CCSCC3)no2)c1,-0.2,7,20,-4,-0.2%,-0.1
CCC(c1nnnn1C1CCCCC1)N1CCN(C(=O)c2ccco2)CC1 (configuration not stated),-0.1,2,-6,0,-1.6%,-0.8
CCOCCCNC(=S)N1CCC(C(=O)c2ccc(C)cc2)CC1,0.2,-2,-1,11,1.8%,0.8
CC(C)(C)c1ccc(C(=O)NNC(=O)c2cccc(Br)c2)cc1,0.7,0,-3,3,?,-2.8
N#C/C(=C\c1ccccc1OCc1ccc(C(=O)O)cc1)c1ccccc1,0.1,-13,3,3,1.0%,-2.2
C=CCn1c(SCC(N)=O)nc2sc3c(c2c1=O)CCC3,0.9,-3,-3,0,0.8%,-1.9
c1cc(CNCCN2CCNCC2)ccn1,-0.6,-12,-5,-11,0.7%,0.1
Cc1cc(C)cc(C(=O)NC(CC(N)=O)c2ccc(NCCN3CCOCC3)c([N+](=O)[O-])c2)c1 (configuration not stated),-0.5,3,-11,1,2.0%,-0.5
Cc1nc2cc(NCc3cccs3)ccc2n1C,0.5,3,-1,2,2.9%,-4.7
CCOC(=O)c1ccc(S(=O)(=O)N2CCN(C(=O)c3cc4ccccc4o3)CC2)cc1,1.2,-4,-17,3,9.6%,-5.7
Cc1coc2c(C)c3oc(=O)c(CCC(=O)NCCCN4CCOCC4)c(C)c3cc12,/,-13,-49,-5,0.0%,-2.7
COC(=O)c1ccc(Cn2c(C)c(C(=O)NCc3cccc([N+](=O)[O-])c3)sc2=O)o1,-1.0,-25,-1,?,-0.1%,2.3
Cn1c(-c2ccccc2)cc(=O)cc1-c1ccccc1,0.2,-19,-14,3,0.6%,-4.7
CC1CCN(C(=O)CN2C(=O)C(=O)N(C)C2=O)c2ccccc2S1 (configuration not stated),0.0,4,-4,4,-1.6%,-1.4
Cn1c(=O)[nH]c(=O)c2c1nc(N1CCCCC1)n2C/C=N/NC(=O)c1cc(Br)ccc1O,0.0,?,-8,-5,-0.8%,-1.1
CC(C)Cc1cc(C(=O)N2CCN(C(c3ccccc3)c3ccccc3)CC2)no1,1.2,-1,-4,7,4.9%,-1.6
O=C(Nc1ccc(S(=O)(=O)N2CCC(C(=O)NC3CCCCC3)CC2)cc1)c1ccco1,-0.1,-1,2,-4,4.5%,2.0
O=C(NC1CCN(S(=O)(=O)c2ccccc2F)CC1)c1cccnc1,0.2,2,-5,6,-0.9%,-5.5
CCOC(=O)/C=C1\CN(C(C)c2ccccc2)S(=O)(=O)c2ccccc21 (configuration not stated),-0.8,4,-1,3,1.5%,0.1
CC[n+]1c(/C=C/c2ccc(OC(C)=O)c(OC)c2)ccc2ccccc21,1.1,/,-5,-10,2.4%,-9.9
CCCCCCC(=O)NC(Nc1ccc(S(N)(=O)=O)cc1)C(Cl)(Cl)Cl (configuration not stated),-0.5,1,-17,-1,-0.1%,-1.5
CC(C)c1ccc(NC(=O)Nc2nc(CN)cs2)cc1,-0.6,?,-13,-20,4.5%,-5.5
COc1ccc2[nH]c3c(N4CC(C)OC(C)C4)ncnc3c2c1 (configuration not stated),-0.6,-6,3,-10,2.9%,-0.4
Clc1nc(CN2CCCCC2)nc2sc3c(c12)CCC3,-0.3,-3,-14,-9,1.8%,-8.9
COc1ccc(C(=S)Nc2ccccc2)cc1,-1.0,0,-20,7,-1.1%,-4.6
COc1ccccc1N1CCN(C(=O)c2noc(C)c2[N+](=O)[O-])CC1,0.5,-7,-5,5,0.6%,1.8
COc1ccccc1NC(=O)COC(=O)Cc1ccc(S(=O)(=O)N2CCCCC2)s1,-0.3,0,-5,5,-0.2%,0.4
O=S(=O)(Nc1nc2ccccc2nc1Cl)c1ccc2ccccc2c1,1.5,-5,22,-12,?,-1.4
CC(C(=O)c1ccccc1)[n+]1cccc(C(N)=O)c1 (configuration not stated),0.7,-1,-7,7,0.7%,2.3

# Quoted from the entries so far (six entries):
SMILES,TRPML1 ag,CtBP-E1A blk,D2 potentiator,Six1-Eya2 inh,PINK1 expr mod,D2 agonist
CC[n+]1c(/C=C/c2ccc(OC(C)=O)c(OC)c2)ccc2ccccc21,1.1,/,-5,-10,2.4%,-9.9
CCCCCCC(=O)NC(Nc1ccc(S(N)(=O)=O)cc1)C(Cl)(Cl)Cl (configuration not stated),-0.5,1,-17,-1,-0.1%,-1.5
CC(C)c1ccc(NC(=O)Nc2nc(CN)cs2)cc1,-0.6,?,-13,-20,4.5%,-5.5
COc1ccc2[nH]c3c(N4CC(C)OC(C)C4)ncnc3c2c1 (configuration not stated),-0.6,-6,3,-10,2.9%,-0.4
Clc1nc(CN2CCCCC2)nc2sc3c(c12)CCC3,-0.3,-3,-14,-9,1.8%,-8.9
COc1ccc(C(=S)Nc2ccccc2)cc1,-1.0,0,-20,7,-1.1%,-4.6

# More entries
SMILES,TRPML1 ag,CtBP-E1A blk,D2 potentiator,Six1-Eya2 inh,PINK1 expr mod,D2 agonist
CC(Oc1cccc(Cl)c1)C(=O)Nc1ccc(N2CCOCC2)cc1N1CCOCC1 (configuration not stated),-0.6,-12,-2,-22,5.6%,1.2
CCCCn1c(N)c(N(CC(C)C)C(=O)c2ccc(S(=O)(=O)N3CCCCCC3)cc2)c(=O)[nH]c1=O,-0.3,-1,-13,8,-2.7%,0.0
CCc1c(C)nc(N)n2c(SCC(=O)N3CCCc4ccccc43)nnc12,2.7,3,-6,0,5.2%[38.3 µM],-2.4
C[C@H](CCC(=O)O)[C@H]1CC[C@H]2[C@@H]3[C@H](O)C[C@@H]4C[C@H](O)CC[C@]4(C)[C@H]3C[C@H](O)[C@]12C,-0.5&-0.1,-1&1&7,-7&-2&-8,1&0&6,-0.5%&-0.3%&-1.3%,-4.9&-7.7&5.2
O=c1c2c3c(sc2ncn1/N=C/c1ccccc1)CCCC3,0.4,5,-3,10,1.4%,2.1
CC(C)(C)c1ccc(C(=O)N2CCC(=O)N(C(COCc3ccccc3)Cc3ccccc3)CC2)cc1 (configuration not stated),0.5,/,-4,-7,5.3%,6.0
CC(NC(=O)c1ccnn1C)C1CCCO1 (configuration not stated),0.4,/,-12,4,1.4%,-5.4
CC(C)(C)C1=Nn2c(nnc2-c2ccccc2F)SC1,1.2,-2,-10,0,22%[38.3 µM],-0.3
CNC(=O)c1[nH]cnc1C(=O)Nc1cccc(OC)c1,-0.9,0,-3,0,4.0%,-3.2
CN(C)C(=O)CN1C(=O)C2CC=C(Cl)CC2C1=O (configuration not stated),0.4,-6,3,11,-0.1%,-3.0
CCc1ccc(Nc2nnc(SCC(=O)NC(=O)c3cccn3C)s2)cc1,-0.3,-24,-3,-3,1.1%,11
O=S1(=O)N=C(N/N=C/c2ccco2)c2ccccc21,-0.7,-22,1,-11,6.5%,-7.3
Cc1c(Br)c([N+](=O)[O-])nn1CC(=O)NC1CCCCCC1,-1.3,0,-6,-14,5.0%,-2.2
Cc1cccn2c(CN(C)C3CCCc4ccccc43)c(C(=O)N3CCOCC3)nc12 (configuration not stated),1.0,-3,-10,-1,0.9%,1.1
Cc1cc(C)n(-c2cc(C(=O)O)cc(C(=O)O)c2)n1,0.0,/,-9,-4,-0.9%,1.1
Cc1[nH]c2ccc(-c3n[nH]c(=S)n3Cc3ccccc3)cc2c1C,1.7,-22,-7,?,2.2%,5.2
O=C1Nc2ccc(F)cc2C12Nc1ccccc1-c1nnc(SCc3ccccc3Cl)nc1O2 (configuration not stated),-0.2,-4,-39,-15,1.9%,-16
Cc1c(C#N)c(NC(=O)c2cccc(Cl)c2)n(Cc2ccccc2)c1C,-0.3,11,16,1,8.6%,-1.8
Nc1nc(SCn2nnc3ccccc3c2=O)n[nH]1,3.7,/,-32,4,3.0%,-0.7
COc1cc(C2NC(=O)NC(O)(C(F)(F)F)C2C(=O)c2cccs2)ccc1O (configuration not stated),-0.4,-1,-4,3,-4.5%[38.3 µM],-1.7
COc1ccc(C2=NN(C(=O)c3ccco3)C(c3cccs3)C2)cc1OC (configuration not stated),1.6,-24,5,?,1.6%,-6.0

# Reformatted with two lines to a compound: 4 of the compounds above
# Values run as follows: TRPML1 ag | CtBP-E1A blk | D2 potentiator | Six1-Eya2 inh | PINK1 expr mod | D2 agonist
Cc1nc2cc(NCc3cccs3)ccc2n1C
  0.5 | 3 | -1 | 2 | 2.9% | -4.7
C[C@H](CCC(=O)O)[C@H]1CC[C@H]2[C@@H]3[C@H](O)C[C@@H]4C[C@H](O)CC[C@]4(C)[C@H]3C[C@H](O)[C@]12C
  -0.5&-0.1 | -1&1&7 | -7&-2&-8 | 1&0&6 | -0.5%&-0.3%&-1.3% | -4.9&-7.7&5.2
CCC(c1nnnn1C1CCCCC1)N1CCN(C(=O)c2ccco2)CC1 (configuration not stated)
  -0.1 | 2 | -6 | 0 | -1.6% | -0.8
COc1ccc(C2=NN(C(=O)c3ccco3)C(c3cccs3)C2)cc1OC (configuration not stated)
  1.6 | -24 | 5 | ? | 1.6% | -6.0
